A1 inhib – blocks A1 activity | 21,000 tested, 0.51% active | MEF A1-2A-BIM cells, caspase-Glo luminescence, 3 h; percent of clofoctol signal, DMSO as zero | caspase activation, % (concentration not given with the values) | AID 2241;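 active means most replicate scores above 10, or exactly half above 10 with mean activity above 10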;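 further: effector caspase 3 and 7 activity cleaving a DEVD luciferin substrate; 50 nL library stock added to about 30 µL; numbers are from one replicate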
BJeLR viab HTS – BJeLR cell viability reduction; BJeLR fibroblasts viability, CellTiterGlo ATP luminescence, 48 h; HRASV12, hTERT and SV40 LT/ST transformed; viability loss activity score, % (test concentration not listed); 30,000 tested, 0.64% active; AID 2275; in the data active means viability loss activity score above about 50%; about a fifth of its hits are not listed in these tables;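 further: higher score means fewer live cells and less ATP luminescence; stock transfer was 50 or 100 nL into about 30 µL; 0% = vehicle wells and 100% = a reference killing control; one replicate is shown; the record names a cut of 85%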
The depositor's hits bear a star. The list is partial (hit frequency here may not be typical).

CC(C)CCNS(=O)(=O)c1ccc(-c2ccc(S(=O)(=O)NCCC(C)C)cc2)cc1 was read as A1 inhib 0.0 and BJeLR viab HTS 1.1.
For CC1(C)CC[C@]2(C(=O)O)CC[C@]3(C)C(=CCC4[C@@]5(C)CC[C@H](O[C@@H]6O[C@H](C(=O)O)[C@@H](O[C@@H]7O[C@H](CO)[C@@H](O)[C@H](O)[C@H]7O)[C@H](O)[C@H]6O[C@@H]6O[C@H](CO)[C@@H](O)[C@H](O)[C@H]6O)C(C)(C)C5CC[C@]43C)C2C1 (stereo partly drawn) the results were A1 inhib -0.2 and BJeLR viab HTS -3.9.
`Cc1ccc(NC(=O)c2cc(C(C)C)[nH]n2)cc1` gave BJeLR viab HTS 9.4.
For C=CC1(C)C=C2CCC3C(C)(C)C(O[C@@H]4O[C@@H](CO)[C@H](O)[C@H]4O)CCC3(C)C2CC1O[C@@H]1O[C@H](C)[C@H](O)[C@H](O)[C@H]1O (stereo partly drawn) the results were A1 inhib 0.1 and BJeLR viab HTS -7.0.
Screening C[C@@H]1CN([C@@H](C)CO)C(=O)c2cccc(NC(=O)C3CCOCC3)c2O[C@@H]1CN(C)S(=O)(=O)c1ccccc1 returned BJeLR viab HTS -0.4.
`COc1ccc(NC(=O)N(C)C[C@H]2Oc3ccc(NS(=O)(=O)c4ccc(Cl)cc4)cc3C(=O)N([C@@H](C)CO)C[C@@H]2C)cc1` gave A1 inhib 0.7 and BJeLR viab HTS -0.8.
`O=C(NCc1ccccc1)N1CCSc2ccccc21` gave A1 inhib 0.1 and BJeLR viab HTS -0.7.
Cc1ccc(C(=O)c2coc3ccc(O)cc23)o1 was read as A1 inhib -6.6 and BJeLR viab HTS 3.5.
`CC(C)NC(=O)Nc1cccc2c1O[C@@H](CN(C)Cc1ccc3c(c1)OCO3)[C@H](C)CN([C@H](C)CO)C2=O` gave BJeLR viab HTS 1.5.
Screening COc1ccc(Br)cc1COC(=O)C1c2ccccc2Oc2ccccc21 returned A1 inhib -0.4 and BJeLR viab HTS 0.6.
For Cc1ccccc1NC(NC(=O)c1ccco1)C(=O)c1ccccc1 (stereo not drawn) the results were A1 inhib 0.5 and BJeLR viab HTS -4.9.
`C[C@@H]1CN([C@@H](C)CO)C(=O)c2cc(NC(=O)C3CCCCC3)ccc2O[C@H]1CN(C)Cc1ccncc1` gave A1 inhib 0.2 and BJeLR viab HTS 3.4.
For COc1ccc(NC(=O)Nc2cccc3c2O[C@H](CN(C)CC2CCCCC2)[C@@H](C)CN([C@H](C)CO)C3=O)cc1 the results were BJeLR viab HTS -2.3.
`CC1C[C@@]23CC4C(C)(C)[C@@]5(C[C@]4(CN2C1=O)N(C)C3=O)C(=O)Nc1c5ccc2c1C(=O)CC(C)(C)O2` (stereo partly drawn) gave A1 inhib -0.7 and BJeLR viab HTS 11.0.
Cc1cccc(-n2ncc3c(N(C)Cc4ccccc4)ncnc32)c1 was read as A1 inhib -3.5 and BJeLR viab HTS -3.6.
`Cc1ccc(NC(=O)C23CC4CC(CC(C4)C2)C3)cc1` gave A1 inhib -0.7 and BJeLR viab HTS 1.2.
CC(=O)N[C@@H](CSC/C=C(\C)CC/C=C(\C)CCC=C(C)C)C(=O)O was read as A1 inhib -1.7 and BJeLR viab HTS -4.2.
C[C@@H]1CN([C@H](C)CO)C(=O)c2cccc(NS(=O)(=O)c3cccs3)c2O[C@@H]1CN(C)Cc1ccc(C(F)(F)F)cc1 was read as BJeLR viab HTS 1.9.
`C[C@H]1CN([C@@H](C)CO)C(=O)c2cc(NS(=O)(=O)c3cccs3)ccc2O[C@H]1CN(C)Cc1ccc(C(=O)Nc2ccccc2N)cc1` gave BJeLR viab HTS 4.4.
For CCC(C)c1ccc(NC(=O)C2CC=CCC2C(=O)O)cc1 (stereo not drawn) the results were A1 inhib -0.4 and BJeLR viab HTS -1.4.
COc1cc(NC(=S)N(C)C)c(OC)cc1Cl was read as A1 inhib 0.0 and BJeLR viab HTS 2.3.
Screening COc1ccc(C[C@H](N)C(=O)N[C@H]2[C@@H](O)[C@H](n3cnc4c(N(C)C)ncnc43)O[C@@H]2CO)cc1 returned A1 inhib 0.3 and BJeLR viab HTS 3.6.
Screening COc1ccc(N2C(=O)c3ccc(Oc4ccccc4)cc3C2=O)cc1 returned A1 inhib -0.2 and BJeLR viab HTS 3.8.
For O=C(NCCSc1ccccc1)c1ccc(Br)cc1 the results were A1 inhib -5.1 and BJeLR viab HTS 4.9.
For O=C(CCCOc1ccccc1)NC1CCCCC1 the results were A1 inhib 0.4 and BJeLR viab HTS 0.1.
For C[C@@H]1CN([C@@H](C)CO)C(=O)c2cc(NC(=O)NC3CCCCC3)ccc2O[C@@H]1CN(C)S(=O)(=O)c1cn(C)cn1 the results were A1 inhib -0.3 and BJeLR viab HTS 2.6.
O=S(=O)(c1ccc(-c2ccccn2)s1)N1CCC2(CC1)OCCO2 was read as A1 inhib 1.3 and BJeLR viab HTS 10.0.
C[C@H]1CN([C@@H](C)CO)C(=O)c2cc(NC(=O)Nc3ccc(F)cc3)ccc2O[C@H]1CN(C)Cc1ccc(Oc2ccccc2)cc1 was read as A1 inhib -0.2 and BJeLR viab HTS -3.4.
C[C@@H]1CN([C@H](C)CO)C(=O)c2cccc(NC(=O)c3ccncc3)c2O[C@H]1CN(C)S(C)(=O)=O was read as BJeLR viab HTS 1.9.
For C[C@@H]1CN([C@H](C)CO)C(=O)c2cccc(NC(=O)c3ccc(-c4nccs4)cc3)c2O[C@H]1CN(C)Cc1ccccc1 the results were BJeLR viab HTS 3.5.
CC(C)c1ccc(NCC(O)COc2ccc(Cl)c(Cl)c2)cc1 (stereo not drawn) was read as A1 inhib 0.7 and BJeLR viab HTS 1.3.
For C[C@H]1CN([C@@H](C)CO)C(=O)c2cccc(NC(=O)c3cnccn3)c2O[C@@H]1CN(C)Cc1ccc(C(F)(F)F)cc1 the results were BJeLR viab HTS -1.1.
`CCn1c(=O)cc(C(=O)OC)sc1=Nc1ccc(F)c(F)c1` gave BJeLR viab HTS -2.7.
Cc1ccc(S(=O)(=O)Nc2cccc3c2O[C@H](CN(C)C(=O)NC(C)C)[C@@H](C)CN([C@H](C)CO)C3=O)cc1 was read as BJeLR viab HTS 2.5.
Screening CCc1ccc(-c2nc(CSCC(=O)NCCc3ccccc3)c(C)o2)cc1 returned BJeLR viab HTS 1.0.
Screening CCOC(=O)c1c(NC(=S)N2CCOCC2)sc(C)c1C returned A1 inhib 0.5 and BJeLR viab HTS -2.6.
For COc1ccc(NC(=O)Nc2cccc3c2O[C@@H](CN(C)C(=O)Nc2ccc(F)cc2)[C@@H](C)CN([C@H](C)CO)C3=O)cc1 the results were BJeLR viab HTS -1.6.
`C[C@H]1CN([C@@H](C)CO)C(=O)c2cccc(NS(=O)(=O)c3ccc(F)cc3)c2O[C@@H]1CN(C)Cc1ccc(-c2ccccc2)cc1` gave BJeLR viab HTS -1.1.
`NS(=O)(=O)c1cc(Cl)c(Cl)c(S(N)(=O)=O)c1` gave A1 inhib -0.1 and BJeLR viab HTS -5.0.
Screening C=CC(C)(O)CC(/C=C(\C)CC(/C=C(\C)CCC=C(C)C)OC(C)=O)OC(C)=O (stereo not drawn) returned A1 inhib -0.4 and BJeLR viab HTS 0.9.

The list goes on (7 carried over from the part before).
Cc1ccc(S(=O)(=O)Nc2cccc3c2O[C@H](CN(C)C(=O)NC(C)C)[C@@H](C)CN([C@H](C)CO)C3=O)cc1 was read as BJeLR viab HTS 2.5.
Screening CCc1ccc(-c2nc(CSCC(=O)NCCc3ccccc3)c(C)o2)cc1 returned BJeLR viab HTS 1.0.
Screening CCOC(=O)c1c(NC(=S)N2CCOCC2)sc(C)c1C returned A1 inhib 0.5 and BJeLR viab HTS -2.6.
For COc1ccc(NC(=O)Nc2cccc3c2O[C@@H](CN(C)C(=O)Nc2ccc(F)cc2)[C@@H](C)CN([C@H](C)CO)C3=O)cc1 the results were BJeLR viab HTS -1.6.
`C[C@H]1CN([C@@H](C)CO)C(=O)c2cccc(NS(=O)(=O)c3ccc(F)cc3)c2O[C@@H]1CN(C)Cc1ccc(-c2ccccc2)cc1` gave BJeLR viab HTS -1.1.
`NS(=O)(=O)c1cc(Cl)c(Cl)c(S(N)(=O)=O)c1` gave A1 inhib -0.1 and BJeLR viab HTS -5.0.
Screening C=CC(C)(O)CC(/C=C(\C)CC(/C=C(\C)CCC=C(C)C)OC(C)=O)OC(C)=O (stereo not drawn) returned A1 inhib -0.4 and BJeLR viab HTS 0.9.
Cc1noc(C)c1S(=O)(=O)Nc1ccc2c(c1)C(=O)N([C@H](C)CO)C[C@H](C)[C@H](CN(C)CC1CC1)O2 was read as A1 inhib -0.3 and BJeLR viab HTS 2.5.
For COc1cccc(-c2csc3nc[nH]c(=O)c23)c1 the results were A1 inhib 0.6 and BJeLR viab HTS -5.0.
O=C(CSc1n[nH]c(=O)n1-c1ccccc1)c1ccc2c(c1)OCCO2 was read as A1 inhib 0.6 and BJeLR viab HTS -2.3.
Screening CC1(C)C[C@H](O)C[C@@]2(C)[C@H]1[C@H](O)C=C1COC(=O)[C@@]12O returned A1 inhib -0.1 and BJeLR viab HTS -11.1.
Screening Cc1ccc(S(=O)(=O)Nc2cccc3c2O[C@@H](CN(C)C(=O)Nc2cccc4ccccc24)[C@H](C)CN([C@@H](C)CO)C3=O)cc1 returned BJeLR viab HTS -4.1.
For COc1ccc(NC(=O)N(C)C[C@H]2Oc3c(NS(=O)(=O)c4ccccc4)cccc3C(=O)N([C@H](C)CO)C[C@@H]2C)cc1 the results were BJeLR viab HTS 4.1.
`COc1cc(OC)c2ccc(=O)oc2c1CC(O)C(C)(C)O` (stereo not drawn) gave A1 inhib 0.5 and BJeLR viab HTS -7.6.
Cc1ccc(-c2ccc(OCC(=O)NC3CCCC3)cc2)cc1 was read as A1 inhib -1.1 and BJeLR viab HTS 1.2.
O=c1cc(NCc2ccccc2)[nH]nc1-c1ccccc1 was read as A1 inhib 0.9 and BJeLR viab HTS 1.8.
`C[C@H](CO)N1C[C@H](C)[C@@H](CN(C)C(=O)Nc2ccccc2)Oc2c(NC(=O)Nc3ccc(C(F)(F)F)cc3)cccc2C1=O` gave BJeLR viab HTS -3.3.
For Cc1ccc(Cn2c(=N)n(CC(=O)O)c3ccccc32)cc1 the results were A1 inhib 1.2 and BJeLR viab HTS -5.5.
N#Cc1c(N)nc2c(sc3nc4c(cc32)CCC4)c1-c1ccc(Br)cc1 was read as A1 inhib -0.1 and BJeLR viab HTS -1.1.
C[C@H]1CN([C@@H](C)CO)C(=O)c2cccc(NS(=O)(=O)c3ccc(Cl)cc3)c2O[C@@H]1CN(C)Cc1ccncc1 was read as BJeLR viab HTS -1.7.
O=C1CC(c2ccccc2)Oc2ccccc21 (stereo not drawn) was read as A1 inhib 1.7 and BJeLR viab HTS 1.2.
Screening Cc1cc2ncc(-c3ccnc(SCCS(=O)(=O)c4ccccc4)n3)c(C)n2n1 returned A1 inhib -0.3 and BJeLR viab HTS -0.4.
Screening C=CCN(C1CCCCC1)S(=O)(=O)c1ccc2c(c1)oc(=O)n2C returned BJeLR viab HTS 0.6.
For COc1ccc(S(=O)(=O)N(C)C[C@H]2Oc3ccc(NC(=O)CCCN(C)C)cc3C(=O)N([C@@H](C)CO)C[C@@H]2C)cc1 the results were A1 inhib 0.5 and BJeLR viab HTS 0.3.
`COc1ccc(S(=O)(=O)Nc2cccc3c2O[C@H](CN(C)S(=O)(=O)c2cccs2)[C@H](C)CN([C@@H](C)CO)C3=O)cc1` gave BJeLR viab HTS -3.7.
COc1cc2c(cc1OC)C(C(=O)NC1CCCCCC1)C(c1cccs1)N(C)C2=O (stereo not drawn) was read as BJeLR viab HTS 1.1.
`CC(C)Cc1ccc(C(C)c2nc3ccccc3n2C)cc1` (stereo not drawn) gave A1 inhib -0.9 and BJeLR viab HTS 2.5.
Screening c1ccc(Cc2nc3c4c5c(sc4ncn3n2)CCCC5)cc1 returned A1 inhib 0.3 and BJeLR viab HTS -3.7.
`C[C@@H]1CN([C@@H](C)CO)C(=O)c2cccc(NS(=O)(=O)c3ccccc3)c2O[C@@H]1CN(C)Cc1ccc2c(c1)OCO2` gave BJeLR viab HTS -3.8.
C[C@H]1CN([C@@H](C)CO)C(=O)c2cc(N(C)C)ccc2O[C@@H]1CN(C)C(=O)Nc1ccccc1 was read as A1 inhib 0.5 and BJeLR viab HTS 1.1.
Screening FC(F)(F)c1ccc(NC(=S)N2CCn3cccc3C2c2cccs2)cc1 (stereo not drawn) returned A1 inhib 0.7 and BJeLR viab HTS 4.6.
C[C@@H]1CN([C@@H](C)CO)C(=O)c2cc(NS(=O)(=O)c3ccc(F)cc3)ccc2O[C@@H]1CN(C)C(=O)Nc1cccc2ccccc12 was read as A1 inhib 0.2 and BJeLR viab HTS -3.1.
`Cc1c(C)c(C)c(CSc2ccccn2)c(C)c1C` gave A1 inhib 0.2 and BJeLR viab HTS -1.3.
For CCCC(=O)Nn1cnc2c(c1=O)C1(CCCC1)Cc1ccccc1-2 the results were A1 inhib 0.3 and BJeLR viab HTS 1.7.
CC(C)(C)S(=O)(=O)c1cnc(-c2cnccn2)nc1N was read as A1 inhib 0.5 and BJeLR viab HTS 3.0.
Screening S=c1[nH]c(-c2ccccc2)c(-c2ccccc2)o1 returned A1 inhib -0.4 and BJeLR viab HTS 1.3.
`C[C@@H]1CN([C@H](C)CO)C(=O)c2cc(NC(=O)Cc3cn(C)c4ccccc34)ccc2O[C@H]1CN(C)Cc1ccc2c(c1)OCO2` gave A1 inhib 0.6 and BJeLR viab HTS 1.2.
`Cc1noc(C)c1NC(=O)Nc1cccc2c1O[C@@H](CN(C)Cc1ccc(Oc3ccccc3)cc1)[C@@H](C)CN([C@@H](C)CO)C2=O` gave BJeLR viab HTS -5.9.
`CCOC(=O)C1=C(C)NC(SCC(N)=O)=C(C#N)C1c1ccccc1` (stereo not drawn) gave A1 inhib -0.3 and BJeLR viab HTS -7.7.

Screening data as filed in PubChem BioAssay.
